# TRPML1 inh – inhibitors of human TRPML1 channel. Q9GZU1. TRPML1-inducible cells, Ca2+ dye fluorescence, FDSS; active compounds read low; inhibition of EC80 agonist-evoked calcium signal. activity change, negative = inhibition, % (test concentration not listed). hit rate 0.02% among 390,000. AID 624415; in the data active means activity change below about -50%; inconclusive means about -30% to -50%; inactive means above about -30%;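 also: stimulus is agonist 54-4 at its EC80 concentration; % is scaled to controls: 0 for no effect and ±100 for the full control effect; compound concentration not given in the record; the text of the record puts the active cut at -80%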
# Target sequence (Q9GZU1 whole entry, looked up): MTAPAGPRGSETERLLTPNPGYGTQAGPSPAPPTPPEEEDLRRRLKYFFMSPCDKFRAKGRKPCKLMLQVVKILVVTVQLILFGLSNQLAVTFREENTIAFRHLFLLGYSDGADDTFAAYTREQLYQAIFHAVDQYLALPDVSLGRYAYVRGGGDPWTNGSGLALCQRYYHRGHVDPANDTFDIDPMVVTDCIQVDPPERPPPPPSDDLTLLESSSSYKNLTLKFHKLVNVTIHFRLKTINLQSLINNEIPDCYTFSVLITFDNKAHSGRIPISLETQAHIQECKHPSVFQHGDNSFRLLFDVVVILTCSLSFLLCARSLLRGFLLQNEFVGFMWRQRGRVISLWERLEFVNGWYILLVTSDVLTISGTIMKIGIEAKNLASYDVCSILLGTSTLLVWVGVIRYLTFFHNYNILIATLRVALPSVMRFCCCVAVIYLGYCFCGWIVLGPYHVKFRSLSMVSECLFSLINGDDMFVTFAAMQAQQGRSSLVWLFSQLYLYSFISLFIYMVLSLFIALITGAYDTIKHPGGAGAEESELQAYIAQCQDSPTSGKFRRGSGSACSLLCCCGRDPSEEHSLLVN
#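 Tet-induced TRPML1-DL cells loaded with Ca8 no-wash calcium dye were read kinetically on FDSS. Compound addition was followed by EC80 agonist 54-4 (4 uM final); inhibition was read over 110 s.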
# ClpP mod – qHTS Assay for Activators of ClpP | hit rate 1.9% among 340,000 | ATP-dependent Clp protease proteolytic subunit (Bacillus subtilis (strain 168)), P80244 | purified B. subtilis ClpP, FRET peptide cleavage, 20 min | Potency, µM (top dose mostly 57.5 µM), for inactives: at the top dose activity change, negative = active | AID 651965, 2013; active = well fitted falling curve with a large enough effect; inconclusive = small, poorly fitted or top-dose-only effect; inactive = no such curve, though single readings can be large or run the other way; also: potency is read from the fitted curve at half-maximal effect; the source files actives as falling curves though it sought activators and does not explain the sign; nearly all actives have a fitted effect of over 65% in size; many hits overshoot -100%
# Target sequence (P80244 whole entry, looked up): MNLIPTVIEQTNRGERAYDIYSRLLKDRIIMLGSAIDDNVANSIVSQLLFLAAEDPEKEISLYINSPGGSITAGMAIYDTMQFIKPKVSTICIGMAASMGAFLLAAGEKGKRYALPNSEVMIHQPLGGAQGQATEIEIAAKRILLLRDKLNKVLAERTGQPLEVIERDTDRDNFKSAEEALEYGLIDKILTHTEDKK
#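 Purified B. subtilis ClpP, 10 microg/mL final in Tris/HCl pH8 with KCl, BSA, glycerol and Tween-20, cleaved an Abz/nitrotyrosine-quenched decapeptide. Fluorescence (ex 320, em 430) was read at 0 and 20 min at room temperature. Delta was normalized to 5.8 microM ADEP and DMSO/no-enzyme controls.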
# TRPML1 agonist – human mucolipin-1 channel agonism | AID 624414 | TRPML1-expressing cells, Ca2+ dye fluorescence, FDSS; host cell line not named in the record; reference of the full effect not given here | hit rate 0.12% among 410,000 | Q9GZU1 | activation, % (no concentration beside the values); in the data active = activation above about 50%; inconclusive = about 30% to 50%; inactive = below about 30%; also: 0% is about no effect; the text of the record puts the active cut at 80%
#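 Cells: TRPML1-DL, 1X Tet inducer, ~16 h at 37 degrees C/5% CO2. Dye: ABD Ca8 no-wash + quencher, 45-90 min RT. Read: 10 s baseline, compound add, 110 s agonist phase; 54-4 EC80 (4uM final), 110 s antagonist phase.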
# Menin MLL FP FL – inhibitors of human menin-MLL interaction, wild-type MLL peptide. FP activity change, % at 61.4 µM. 290,000 tested, under 10 active. Fluorescence polarization, fluorescein-MLL peptide displacement from menin; inconclusive = falling polarisation curve, or a change in total fluorescence; inactive = total fluorescence flat and polarisation flat or rising; no compound was filed as active; the % refers to the polarisation; negative = inhibition;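 also: % of control where 0% means no effect; inhibitors lower the polarisation; unlabelled MLL peptide was the positive control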
# gsp antag – gsp mutant antagonism; gsp-mutant cells, cAMP HTRF, 30 min; control for the full effect not named in the record; Potency, µM (doses to about 76.9 µM), without a hit: at the top dose activity change, negative = inhibition, most hits filed as inhibitors; hit rate 0.4% among 340,000; active = falling curve of any shape with a large fitted effect; inconclusive = falling curve, mostly with a smaller effect; inactive = flat or rising curve; cell line not stated here;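 also: intracellular cAMP measured with PDE inhibitor Ro 20-1724 present during compound exposure; potency is read from the fitted curve at half-maximal effect; % is scaled to controls: 0 for no effect and ±100 for the full control effect; nearly all actives have a fitted effect of over 65% in size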
#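 HTRF cAMP read-out (cAMP-d2 plus anti-cAMP antibody-K in lysis buffer, 30 min RT). Before lysis, cells are exposed to compounds with […] for 30 min at 37C in DPBS containing Ca/Mg, BSA and Tween 20.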
# gsp agonist – agonists of gsp mutant (McCune-Albright syndrome). gsp mutant cells, cAMP HTRF, 30 min; control for the full effect not named in the record. Potency, µM (top dose mostly 76.9 µM), without a hit: at the top dose activation (cAMP increase), most hits filed as activators. hit rate 0.13% among 340,000. AID 624287; active = well fitted activation curve with a large enough effect; inconclusive = small, poorly fitted or top-dose-only effect, or another doubt; inactive = no such curve, though single readings can be large or run the other way; cell line not stated here;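 also: phosphodiesterase inhibitor Ro 20-1724 added with compounds to block cAMP breakdown; potency is read from the fitted curve at half-maximal effect; nearly all actives have a fitted effect of over 60% in size; about a fifth of the inactives were tested at one dose only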
#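 Cells in DMEM/10% FBS with G418 were pretreated with compounds in DMSO plus […] (300 uM stock) for 30 min at 37C. cAMP was measured by HTRF (cAMP-d2 plus anti-cAMP antibody-K) after 30 min at room temperature.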
# An asterisk follows results filed as active; ? = inconclusive; / = not tested or not shown; & = joins results of further samples; [ ] = dose if it differs, or a comment. Compounds were not picked by outcome. About 2.1% of those tested had a hit in this group.
SMILES,TRPML1 inh,ClpP mod,TRPML1 agonist,Menin MLL FP FL,gsp antag,gsp agonist
CC(C)c1nc(CNC(=O)C2CCC(=O)N(Cc3ccc(Cl)cc3)C2)no1 (stereo not drawn),-2.7,-4.7%,0.1,/,13.9%,-15.5%
Cc1ccc2nc3c(cc2c1)c(C)nn3-c1ccccc1,/,4.0%,/,-10.8,9.8%,40.8%
COc1ccc(C(=O)c2cn[nH]c2-c2cc(Cl)ccc2O)cc1,1.8,-2.8%,1.1,3.8,-32.9%,18.3%
COc1ccc(NS(=O)(=O)c2ccc(NC(=O)c3ccc(Br)cc3)cc2)nn1,13.5,-2.1%,1.6,2.9,-21.4%,1.7%
N/C(=N\OC(=O)c1ccccc1[N+](=O)[O-])c1cccnc1,-12.2,4.0%,-1.7,-3.4,12.2%,-7.3%
COc1ccc(CCNC(=O)CSc2nc(=O)[nH]c3c2CCC3)cc1OC,-8.3,/,0.6,/,3.2%,27.2%[15.4 µM]
Cc1ccc(S(=O)(=O)N(C)C)cc1NC(=O)C(C)Sc1ccccc1 (stereo not drawn),-3.2,0.0%,0.0,0.4,-1.3%,21.6%
NS(=O)(=O)c1ccc(NC(=O)COC(=O)c2cc(Cl)ccc2[N+](=O)[O-])cc1,-18.4,/,0.3,2.3,-3.4%,0.5%[15.4 µM]
Cc1ccc(Nc2nc(N)nc(CN3CCN(Cc4ccc5c(c4)OCO5)CC3)n2)cc1Cl,8.2,-2.1%,0.3,-1.5,3.5%,3.6%
Cc1ccc(C(=O)/C=C/c2cn(CC(O)CN3CCCCCC3)c3ccccc23)cc1 (stereo not drawn),3.4,-6.3%,1.0,/,/,/
Nc1c(C(=O)Nc2ccccc2Cl)nnn1-c1ccc2c(c1)OCCO2,6.5,/,-0.9,-1.3,3.0%,0.0%[15.4 µM]
O=C(CN1CCOCC1)Nc1ccc(OCc2ccccc2)cc1,-3.7,-5.5%,0.2,-7.3,-4.5%,?
N#CCC(=O)Nc1cc(C(F)(F)F)ccc1N1CCOCC1,0.2,-0.6%,0.0,-0.5,2.1%,9.6%[15.4 µM]
CCN(C(=O)c1cc2c(=O)n3ccccc3nc2s1)C1CCCCC1,4.5,/,0.7,3.6,/,-2.1%[15.4 µM]
O=C(CCCOc1ccc(Cl)cc1Cl)N/N=C/c1ccccc1,-0.8,-11.3%,4.0,2.7,-14.0%,-0.2%
CCCNC(=O)c1ccc(C2SCC(=O)N2Cc2ccccc2)cc1 (stereo not drawn),-6.4,2.51µM*,0.3,-0.5,7.2%,-13.3%
Cc1cc(-c2c(C)[nH]n(-c3ccc(Cl)cc3)c2=O)n(-c2ccc(Cl)cc2)n1,-3.4,-1.3%,-0.7,6.4,31.6µM*,-13.7%
COc1ccccc1C1CC(c2ccccc2)=NN1C(=S)Nc1ccccc1 (stereo not drawn),1.5,/,-1.0,?,-9.2%,27.3%[15.4 µM]
Cc1cc(Cl)ccc1OCC(=O)OCC(=O)Nc1ccc(Cl)cn1,-4.3,-0.7%,-0.9,/,/,-93.3%[inhibitor]
CC(C)CNC(=S)N1CCN(C(c2ccccc2)c2ccccc2)CC1,12.7,-3.1%,3.4,2.1,-18.8%,-11.5%
COc1c(Cl)cc(Cl)cc1/C=C/C(=O)c1ccc(NC(=O)c2cccs2)cc1,32.5,1.0%,-0.3,-0.1,-10.4%,-6.0%
CCc1ccccc1NC(=O)c1ccc(Cn2cc([N+](=O)[O-])cn2)cc1,9.8,0.4%,2.6,2.4,5.3%,-3.0%[15.4 µM]
CCc1ccc(NC(=O)c2sc3nc(C)c(C(=O)Nc4ccc(C)cc4C)c(-c4ccco4)c3c2N)cc1,0.3,-2.3%,1.3,/,/,/
CCN(CC(=O)Nc1c(F)cccc1F)C(=O)c1ccc(-c2ccc(C(C)=O)cc2)o1,-4.9,4.0%,-0.2,/,-21.6%,16.9%
CNC(=O)NC(=O)CSc1cccc(C(F)(F)F)c1,-7.4,-7.9%,0.5,2.5,9.9%,-45.7%[inhibitor]
CCOC(=O)C1CCN(Cc2c(O)c3ccccc3oc2=O)CC1,0.8,/,0.7,1.8,-7.2%,10.8%
CN(Cc1ccccc1)C(=O)CSc1nnc(-c2ccco2)n1-c1ccccc1,-16.3,-24.3%,0.5,-0.1,2.2%,-53.0%[inhibitor]
O=C(COc1ccccc1)OCc1cc(=O)n2nc(C3CC3)sc2n1,-10.0,-6.1%,-0.1,/,/,/
COc1ccccc1C(=O)COC(=O)c1cnc(C)cn1,-17.8,-2.7%,0.6,/,5.1%,22.0%[15.4 µM]
Cc1ccc(Cc2c(C)nc3nc(SCC(=O)NCCN4CCOCC4)nn3c2C)cc1,-13.1,-6.4%,1.1,9.4,-0.6%,-37.7%
COC(=O)C1=C(C)NC(=O)/C1=C\c1cc(C)n(-c2ccccc2C)c1C,7.5,-1.8%,-1.2,1.6,12.2%,0.0%
COC(=O)c1cc(S(=O)(=O)Nc2c(C)cccc2C)cn1C,24.3,-2.0%,-1.0,2.9,4.7%,-15.3%
Cc1c(N2C(=O)C(=O)/C(=C(/O)c3ccccc3)C2c2ccc(F)cc2)c(=O)n(-c2ccccc2)n1C (stereo not drawn),-19.8,1.9%,-0.2,-0.3,7.7%,?
Cc1cc(C)c(NC(=O)Cn2c(=O)n(-c3ccc(F)cc3)c(=O)c3c(C)c(C(=O)N(C)C)sc32)c(C)c1,7.0,-6.5%,1.0,/,/,/
COc1ccc(CN(C)CC(O)COc2ccc(-c3ccccc3)cc2)cc1OC (stereo not drawn),-14.7,/,-0.5,-11.6,4.6%,13.4%
COc1ccc(C(=O)NCc2ccc3c(c2)CCO3)cc1,1.2,2.8%,0.3,2.6,1.4%,21.1%
COCC(C)NS(=O)(=O)c1ccc(OC)cc1 (stereo not drawn),-15.4,2.9%,-0.3,0.3,10.4%,-13.0%
NC(=O)c1c(NC(=O)C2CCCO2)sc2c1CCCCC2 (stereo not drawn),-8.3,-6.3%,0.5,0.3,4.1%,0.0%
N=c1sccn1CC(=O)NC(=O)NC1CCCC1,-11.8,45.4%,-0.2,2.3,14.9%,10.1%
COc1ccc(NC(=O)CSc2nnc3n2CCCCC3)cc1,-7.6,1.0%,0.0,5.1,-4.3%,0.8%[15.4 µM]
COc1ccc(NC(=O)c2ccccc2NS(C)(=O)=O)cc1OC,-0.7,-1.8%,-0.3,-1.0,1.5%,?
Cc1ccc(S(=O)(=O)c2nc(S(C)(=O)=O)sc2NCC2CCCO2)cc1 (stereo not drawn),-1.1,1.1%,0.7,-0.7,-16.2%,8.6%
Nc1ccc(C(=O)NCc2ccccc2)cc1,-3.2,0.3%,-0.6,-0.7,5.4%,-47.3%[inhibitor]
CC1CCCN(C(=O)c2ccc(NC(=O)CC3SC(N4CCCC4)=NC3=O)cc2)C1 (stereo not drawn),-0.8,0.6%,-0.7,/,6.5%,6.4%
CCOc1ccc(NC(=O)c2ccc(-c3ccccc3)s2)cc1,6.6,-4.4%,0.4,/,/,/
CCc1ccc(NC(=O)COc2ccc(Br)cn2)cc1,-0.1,-1.6%,-0.1,8.8,3.8%,5.9%
Cc1ccccc1C(=O)NC(C)c1ccc2c(c1)CCCC2 (stereo not drawn),11.7,-1.5%,1.6,-1.1,-6.4%,-15.6%
Cc1ccccc1OCc1nnc(SCC(=O)NCc2ccco2)n1C,3.0,/,-1.3,2.0,12.8%,-1.5%[15.4 µM]

# gsp antag: hit marks shown above
Structure	TRPML1 inh	Menin MLL FP FL	gsp antag	gsp agonist
Cc1cc(-c2c(C)[nH]n(-c3ccc(Cl)cc3)c2=O)n(-c2ccc(Cl)cc2)n1	-3.4	6.4	31.6µM*	-13.7%

# Next section:
SMILES,TRPML1 inh,ClpP mod,TRPML1 agonist,Menin MLL FP FL,gsp antag,gsp agonist
CSc1ccccc1NC(=O)c1cc(C)on1,-5.7,-0.3%,0.5,1.1,5.5%,-44.3%[inhibitor]
O=C(OCc1cn([C@@H]2CN(C(=O)C3CCCCC3)[C@@H](c3ccccc3)C[C@H]2O)nn1)c1ccccc1,3.7,-0.7%,-0.2,/,/,-13.5%
COc1ccc(S(=O)(=O)N2CCCOC2CNC(=O)C(=O)NCc2ccccc2C)cc1 (stereo not drawn),-3.0,-3.4%,-1.1,/,/,-29.9%
O=C(CSc1ccc(-c2ccccn2)nn1)N1CCCc2ccccc21,-5.5,/,1.7,0.7,-4.3%,42.8%[15.4 µM]
O=C(COc1coc(CN2CCN(c3ccccc3)CC2)cc1=O)Nc1ccccc1,-10.5,1.1%,1.9,/,-5.7%,18.2%[15.4 µM]
COCCOC(=O)C1=C(C)NC(C)=C(C(=O)OC(C)C)C1c1cccc([N+](=O)[O-])c1 (stereo not drawn),14.3,0.9%,3.2,0.3&4.6&1.3&-3.1&-1.1,-11.2%,/
CC1C(=O)CC(c2ccccc2)N(C)C1c1ccccc1 (stereo not drawn),-10.2,-3.7%,3.0,1.2,-1.1%,1.8%
CC(C)(C)N(Cc1ccccc1)C(=O)c1ccc(Br)o1,18.5,-6.1%,0.7,-0.5,-13.2%,-0.2%[15.4 µM]
CCOc1ccc(CNC(=O)c2ccc(CS(=O)c3ccccc3)o2)cc1 (stereo not drawn),4.5,-3.5%,-0.9,/,/,/
Cc1cc(C)n2ncc(C(=O)NC3CCCCC3)c2n1,14.5,/,-0.7,-1.1,-10.5%,18.0%
Fc1ccc(N/N=C2/CC(c3ccccc3)Oc3ccccc32)c(F)c1 (stereo not drawn),-10.3,-2.9%,-0.7,7.2,0.4%,1.0%
O=C(COC(=O)c1cccc(S(=O)(=O)N2CCCCCC2)c1)Nc1ccccc1C(F)(F)F,-0.5,1.8%,2.0,/,4.7%,-27.0%
O=C(C[n+]1cc(-c2ccc(F)cc2)n2c1CCC2)Nc1nc(-c2ccc(F)cc2)cs1,14.6,-1.1%,0.3,-0.9,8.4%,27.5%
Cc1ccc(C(C)C)c(OCC(=O)Nc2sc3c(c2C#N)CC(C)(C)NC3(C)C)c1,73.3,/,2.3,-0.7,-29.2%,-4.7%[15.4 µM]
CN(c1ccccc1)S(=O)(=O)c1ccc(Cl)c(C(=O)Nc2nn[nH]n2)c1,-0.6,1.1%,0.1,-2.3,12.9%,1.7%
Cc1cc(NC(=O)CCC(=O)N(Cc2cccs2)C(C(=O)NC2CCCC2)c2cccnc2)no1 (stereo not drawn),4.0,-1.0%,1.7,2.9,3.5%,-8.1%
Cc1c(OCC(=O)NCC(O)c2ccccc2)ccc2c3c(c(=O)oc12)CCCC3 (stereo not drawn),-3.1,4.0%,1.4,1.9,-21.7%,-1.0%
